Source: PubChem BioAssay
S aureus helic: S. aureus DNA helicase inhibition; purified S. aureus helicase, fluorescence unwinding assay; about half of the hits fall short of the stated cut; inhibition, %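 (tested at about 80 µM)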; 0.05% of 120,000 active;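 active = both duplicates at 50% or more, or one of them with a favoured structure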;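 note: 0% = mean of negative control wells and 100% = mean of positive control wells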
MgrA-DNA mod: S. aureus MgrA-DNA binding modulation. fluorescence polarization. inhibition, %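 (about 10 µg/mL by stock and volumes)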. 0.13% of 84,000 active. AID 602314;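 active = above 50% in either of two replicates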;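 note: 0% = protein plus DNA without compound and 100% = DNA alone without protein; higher means less MgrA bound to DNA so lower polarization; one replicate is shown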
* = called active by the depositor; x = no result given. Some of the compounds tested, so the mix of outcomes need not match the whole.

SMILES	S aureus helic	MgrA-DNA mod
C/C(=N\S(=O)(=O)c1ccc(C)cc1)Nc1ccc(O)c(C)c1	-6.0	1.7
CN(Cc1ccc(C(F)(F)F)cc1)c1ccc(S(=O)(=O)N2CCCC2)cn1	6.0	x
CC(=O)Nc1ccc(OC(=O)c2ccco2)cc1	-6.0	1.6
Cc1cnc(C(=O)OCc2cc(Cl)c3c(c2)OCCO3)cn1	-8.0	x
COC(=O)c1ccc(CSc2ccc(Br)cc2)o1	0.0	2.2
CC(C)Cn1c(N2CCN(C(=O)c3sc4ccccc4c3Cl)CC2)nc2ccccc21	7.0	-0.9
Cc1ccc(C)n1/N=C1\NC(=O)CS1	8.0	25.2
COCCN1C(=O)/C(=C\c2ccc3c(c2)OCO3)SC1=S	3.0	1.4
O=C(O)C(Cc1ccccc1)Nc1ncnc2c1oc1ccccc12 (stereo unspecified)	11.0	4.2
CCCCCc1ccc(-c2ccc(Br)cc2)cc1	x	0.1
O=C1c2cccc3cccc(c23)N1c1ccccc1	3.0	0.9
CC(C)C1CCC(C(=O)N[C@@H](Cc2ccccc2)C(=O)O)CC1 (stereo partly specified)	x	1.4
COc1ccc(C(=O)Cc2cnn(-c3ccccc3)c2)c(O)c1	18.0	x
CCCCN(C(=O)CC1CCCC1)c1c(N)n(Cc2ccccc2)c(=O)[nH]c1=O	-4.0	x
CC1(C)CC(=O)C2=C(C1)c1c(ccc3ncccc13)NC2C1CC=CCC1 (stereo unspecified)	10.0	1.1
Cc1cc(C)n(-c2ccc(Sc3ccc(Cl)cc3)nn2)n1	x	4.3
CCN(CC)c1ccc(C2C(C#N)=C(C)NC3=C2C(=O)CC(c2ccc(OC)cc2)C3)cc1 (stereo unspecified)	x	1.6
COC(=O)c1cc(/C=N/NC(N)=O)cn1C	-15.0	x
COc1cccc(OCCSc2nc(C(C)C)cc(=O)[nH]2)c1	7.0	-0.2
CCCCn1c(CCC(=O)OCC(=O)Nc2ccc(OC)cc2)nc2cc(S(=O)(=O)N3CCOCC3)ccc21	-5.0	x
CC(=O)N1c2c(ccc3ccccc23)C(C)=CC1(C)C	5.0	0.8
CCc1ccc(NS(=O)(=O)c2ccc3[nH]cc(C(=O)N(CC)CC)c(=O)c3c2)cc1	-34.0	x
COC(=O)/C=c1\sc2ncnn2c1=O	-2.0	0.9
Clc1ccc(-c2nc(N3CCN(Cc4ccc5c(c4)OCO5)CC3)c3ccccc3n2)cc1	-1.0	x
N#Cc1cccc(NC(=O)CN2CCc3ccccc32)c1	-4.0	x
CC1CN(C(=O)NC23CC4CC(CC(C4)C2)C3)c2cc(Cl)ccc2O1 (stereo unspecified)	-1.0	-2.0
COc1ccc(SS(=O)(=O)c2ccc(OC)c(NC(C)=O)c2)cc1NC(C)=O	16.0	x
O=C(O)CCCCc1nc2ccccc2s1	8.0	x
Cc1ccc(S(=O)(=O)Nc2cccc(C(=O)N3CCCCC3)c2)cc1	18.0	x
COC(=O)c1sccc1NC=C(C#N)C#N	-11.0	x
O=S1(=O)CCN(C(CCO)c2cccc(C(F)(F)F)c2)CC1 (stereo unspecified)	x	0.8
O=C(Cn1ncc2c1-c1ccccc1OC2)NCc1cccnc1	19.0	x
Cc1cc(NCc2ccccc2)nc(NCc2ccccc2)n1	13.0	x
O=C1CC(CSc2nnnn2-c2ccccc2)=NN1c1ccccc1	4.0	-7.6
COc1ccc(OC)c(Nc2nc(-c3cccc(Cl)c3)c3c(n2)-c2ccccc2OC3)c1	4.0	0.6
CCOc1ccc(-n2c(N)c(C(=O)NCc3cccnc3)sc2=S)cc1	1.0	15.3
CC(C)(C)C(=O)NCC(c1ccco1)N1CCN(c2ccc(F)cc2)CC1 (stereo unspecified)	0.0	x
COc1ccccc1NS(=O)(=O)c1ccc2oc(Nc3ccc(S(=O)(=O)N4CCCCC4)cc3)nc2c1	-6.0	x
NC(=O)CCS(=O)(=O)c1ccc(Cl)cc1	-6.0	-1.6
Cc1cccc(C)c1NC1=NCCCCC1	21.0	x

Fetched by structure from the list above:
SMILES	S aureus helic	MgrA-DNA mod
COc1ccccc1NS(=O)(=O)c1ccc2oc(Nc3ccc(S(=O)(=O)N4CCCCC4)cc3)nc2c1	-6.0	x
Cc1cc(NCc2ccccc2)nc(NCc2ccccc2)n1	13.0	x
O=S1(=O)CCN(C(CCO)c2cccc(C(F)(F)F)c2)CC1 (stereo unspecified)	x	0.8
N#Cc1cccc(NC(=O)CN2CCc3ccccc32)c1	-4.0	x
COC(=O)/C=c1\sc2ncnn2c1=O	-2.0	0.9

The list goes on.
SMILES	S aureus helic	MgrA-DNA mod
CC(C)Cn1c(=O)c(C#N)cc2c(=O)n3ccccc3nc21	-3.0	-0.4
COc1ccc(C(=O)CN2Cc3ccccc3C2=N)cc1OC	8.0	1.5
C=CC[C@@H]1Cc2ccccc2[C@H](CC=C)N1	-21.0	3.4
Cc1cc2nc(SCC(=O)NCCN3CCCCC3)[nH]c2cc1C	12.0	x
CCCN(CCC)S(=O)(=O)c1ccc(C(=O)Nc2ccc(F)cc2)cc1	x	-1.5
O=C(CSc1nc2sc3c(c2c(=O)[nH]1)CCCC3)NCc1cccs1	14.0	0.9
COc1ccc(-c2csc(Nc3c(C)n[nH]c3C)n2)cc1	-9.0	x
COc1ccc(Oc2ccccc2OC)cc1	x	-1.3
CCCN1CCC(NC(=O)c2ccc(F)cc2Cl)CC1	1.0	-0.2
CCN(C(=O)CSc1ccc(NC(C)=O)cc1)C1CCS(=O)(=O)C1 (stereo unspecified)	-2.0	x
O=C(CSc1nnc(-c2ccc3c(c2)OCO3)o1)N1CCc2ccccc21	-14.0	x
CC1SCC(=O)N(CC(=O)NCc2ccc(F)cc2)C1=O (stereo unspecified)	-2.0	x
O=C(CCC(=O)c1cccs1)OC1CCOC1=O (stereo unspecified)	-11.0	x
Cc1ccc(C(=O)/C(=C/N(C)C)Sc2ccc(C(F)(F)F)cn2)cc1	x	-4.8
N#Cc1c(N2CCSCC2)nsc1-c1ccccc1Cl	x	-3.5
Cc1cc(=O)[nH]c(-c2ccc(C(N)=O)cc2)n1	x	-6.2
COC(=O)c1sc(N)c(C(=O)OC)c1COC(=O)c1c(C)noc1C	-9.0	x
O=S1(=O)CC(S(=O)(=O)c2cccs2)c2ccccc21 (stereo unspecified)	x	1.1
CCOc1ccc(N(C(C)=O)C2C=CS(=O)(=O)C2)cc1 (stereo unspecified)	-10.0	x
Cc1cc(C#N)c(SCC(N)=O)nc1-c1ccc(F)cc1	0.0	2.9

Reformatted in CSV form: 21 of the compounds above.
Structure,S aureus helic,MgrA-DNA mod
CC(C)(C)C(=O)NCC(c1ccco1)N1CCN(c2ccc(F)cc2)CC1 (stereo unspecified),0.0,x
COc1ccccc1NS(=O)(=O)c1ccc2oc(Nc3ccc(S(=O)(=O)N4CCCCC4)cc3)nc2c1,-6.0,x
NC(=O)CCS(=O)(=O)c1ccc(Cl)cc1,-6.0,-1.6
Cc1cccc(C)c1NC1=NCCCCC1,21.0,x
CC(C)Cn1c(=O)c(C#N)cc2c(=O)n3ccccc3nc21,-3.0,-0.4
COc1ccc(C(=O)CN2Cc3ccccc3C2=N)cc1OC,8.0,1.5
C=CC[C@@H]1Cc2ccccc2[C@H](CC=C)N1,-21.0,3.4
Cc1cc2nc(SCC(=O)NCCN3CCCCC3)[nH]c2cc1C,12.0,x
CCCN(CCC)S(=O)(=O)c1ccc(C(=O)Nc2ccc(F)cc2)cc1,x,-1.5
O=C(CSc1nc2sc3c(c2c(=O)[nH]1)CCCC3)NCc1cccs1,14.0,0.9
COc1ccc(-c2csc(Nc3c(C)n[nH]c3C)n2)cc1,-9.0,x
COc1ccc(Oc2ccccc2OC)cc1,x,-1.3
CCCN1CCC(NC(=O)c2ccc(F)cc2Cl)CC1,1.0,-0.2
CCN(C(=O)CSc1ccc(NC(C)=O)cc1)C1CCS(=O)(=O)C1 (stereo unspecified),-2.0,x
O=C(CSc1nnc(-c2ccc3c(c2)OCO3)o1)N1CCc2ccccc21,-14.0,x
CC1SCC(=O)N(CC(=O)NCc2ccc(F)cc2)C1=O (stereo unspecified),-2.0,x
O=C(CCC(=O)c1cccs1)OC1CCOC1=O (stereo unspecified),-11.0,x
Cc1ccc(C(=O)/C(=C/N(C)C)Sc2ccc(C(F)(F)F)cn2)cc1,x,-4.8
N#Cc1c(N2CCSCC2)nsc1-c1ccccc1Cl,x,-3.5
Cc1cc(=O)[nH]c(-c2ccc(C(N)=O)cc2)n1,x,-6.2
COC(=O)c1sc(N)c(C(=O)OC)c1COC(=O)c1c(C)noc1C,-9.0,x

Going on with the list.
SMILES	S aureus helic	MgrA-DNA mod
Cc1ccc(Cn2cc(CCC(=O)N3CCc4ccccc43)c3ccccc32)cc1	7.0	-1.6
O=C(Nc1cc(-c2cccs2)nn1-c1ccc(I)cc1)C1CCC1	-14.0	x
CCOC(=S)Nc1cccc(C(F)(F)F)c1	7.0	x
COc1c(C(=O)NCCOc2ccccc2)ccc2ccccc12	-16.0	-0.1
O=C(OCC(=O)N1CCCc2ccccc21)c1cc2ccccc2oc1=O	-3.0	x
Cn1c2ccc(F)cc2c2nnc(NN)nc21	10.0	-0.1
CC(C)(CC(=O)O)CC(=O)N1CCN(c2cc(C(F)(F)F)nc3ccccc23)CC1	x	-0.4
Cc1sc2c(c1C)c(=O)[nH]c1nnc(Nc3ccccc3)n12	-17.0	x
CN(C)c1ccc(C(=O)NCCN2C(=O)S/C(=C\c3ccc4c(c3)OCO4)C2=O)cc1	-6.0	x
c1ccc(Sc2ncnc3ccsc23)nc1	-18.0	x
N#C/C(=C\c1ccc(/C=C(\C#N)S(=O)(=O)c2ccccc2)cc1)S(=O)(=O)c1ccccc1	x	-1.9
O=C(Nc1cccc(-c2cnco2)c1)c1ccc(C(F)(F)F)cc1	x	-1.6
CCCC1=C(C(=O)OCC)C(c2ccc(NC(C)=O)cc2)NC(=O)N1 (stereo unspecified)	-2.0	-0.6
CCOc1ccccc1NC(=O)c1cc2cc(Br)ccc2oc1=O	-26.0	x
CC(C)(CNC(=O)Cc1ccsc1)N1CCOCC1	-6.0	x
CCOC(=O)c1c(SC)nc2c(C(F)(F)F)cccc2c1Oc1ccc(OC)cc1	x	-1.3
CC(=O)Oc1c2c(c[n+](C)c1C)COC(C)(C)OC2	3.0	-1.1
CC(C(=O)NCc1ccc2c(c1)OCO2)N1CCN(c2ccccc2F)CC1 (stereo unspecified)	1.0	x
COC(=O)c1cn(-c2ccccc2)c(=O)c2ccccc12	x	-2.4
c1ccc2oc(-c3csc(NCC4CCCO4)n3)cc2c1 (stereo unspecified)	9.0	x
O=C(N/N=C/c1ccccc1Cl)c1cccnc1	x	-1.8
CCCNS(=O)(=O)c1ccc2c(c1)SCC(=O)N2	-1.0	0.3
Cc1ccc(CNC(=O)CC2CCCC2)cc1	22.0	-0.3
O=C1OC(c2ccccc2)=N/C1=C\C=C\c1ccccc1	-8.0	1.9
C#CCN1CC(OCC)=CC1=O	4.0	x
CCNc1cc(N)[n+](CC)c2n[nH]c(/N=C/c3cc(Cl)cc(Cl)c3O)c12	x	10.1
O=C(NCCc1nc2ccccc2[nH]1)c1ccc(F)cc1	13.0	-0.8
Nc1[nH]nc2nc(N3CCCCC3)nc(-c3ccccc3)c12	5.0	x
COc1ccccc1-c1noc(CCC(=O)N2CCC(c3c[nH]c4ccccc34)(c3c[nH]c4ccccc34)CC2)n1	25.0	x
O=C(Cn1c(C(=O)NCC2CCCO2)cc2sccc21)c1ccccc1 (stereo unspecified)	7.0	-1.8
O=C(CCS(=O)(=O)Cc1ccccc1)Nc1nccs1	-1.0	1.0
CCN(Cc1ccccc1)C(=O)C1CCN(Cc2cc(Br)c(O)c(OC)c2)CC1	3.0	1.4
C#CC1(O)CC(C)(C)NC(C)(C)C1	20.0	x
COc1ccc(COCC(O)CN2CCCC(C)C2)cc1OC (stereo unspecified)	-3.0	x
N/C(CN1CCCC1=O)=N\O	3.0	0.1
CSC(=NCCC1CC1(Cl)Cl)NC#N (stereo unspecified)	x	-3.1
CSc1sc(C(=O)O)c2c1C(=O)CC(C)(C)C2	8.0	x
CCOC(=O)c1ccc(NC(=O)c2ccccc2NC(=O)c2ccccc2)cc1	x	1.2
CCN(CC)S(=O)(=O)c1cccc(C(=O)N[C@H](C(=O)Nc2ccc3c(c2)OCCO3)C(C)C)c1	6.0	x
COC(=O)c1ccc(C#Cc2ccccc2)o1	x	-0.8
O=C(Nc1ccc(S(=O)(=O)N2CCCCC2)cc1)c1ccccn1	-7.0	x
O=C1c2ccccc2C(=O)N2CC3(c4ccccc4)CN1CC(c1ccccc1)(C2)C3=O	11.0	x
CC(=O)N1c2ccccc2C(=O)C1N1CCN(c2cc(C)ccc2C)CC1 (stereo unspecified)	4.0	x
CCOC(=O)c1nc(-c2cccs2)no1	x	-0.9
CC(=O)N(c1ccc2oc(=O)sc2c1)S(=O)(=O)c1ccc(C)cc1	25.0	x
Cc1csc(-c2snnc2C)n1	x	3.3
O=C(O)c1c(NC(=O)C2CCCC2)sc2c1CCC2	-48.0	x
NC(=O)c1cc2cc(F)ccc2[nH]1	3.0	x
